Compound activity deposited in PubChem BioAssay by several laboratories.
Sa ugtP lethal: growth inhibition of ugtP-null S. aureus, primary screen, RN4220 ugtP deletion, OD600; 16 h; some inactives read as strong as hits; growth inhibition, % (no concentration beside the values); hit rate 0.54% among 330,000;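 active = z-score under -3 and OD600 up to 0.15 on both plates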;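 note: plate controls were untreated wells for no effect and antibiotic for full effect; wells of about 80 µL received 100 nL stock; the first replicate is given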
Autofluor counter: counter-screen for toxin protease inhibitors: compound fluorescence. compound autofluorescence counterscreen, microsphere flow cytometry; stronger effect = higher value. fluorescence intensity (concentration not given with the values). hit rate 3.1% among 360,000;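 active = at least 3 SD above the mean of all compounds, about 16000 in these data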;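 note: 100 nL of 1 mM stock went into each well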
BJeLR viability: MLPCN primary cell-based screen for lethality selective to Ras in HRASV12 cells; BJeLR (HRASV12) viability, CellTiter-Glo ATP luminescence, 48 h; reference of the scale not given here; inhibition, % (concentration not given with the values); hit rate 0.17% among 300,000; AID 1554, 2009;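 active = replicate mean above 50%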;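 note: 50 nL library stock added to about 25 µL; numbers are from one replicate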
PrP 5UTR inh: inhibition of PrP 5' UTR reporter expression. inhibition, % (concentration not given with the values). cell-based PrP 5' UTR mRNA reporter, plate reader. hit rate 0.35% among 340,000;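 active = every replicate at 50% or more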;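 note: 0 = median of the neutral control wells; tested in H4 reporter cells; numbers are from one replicate; inactives centre near -14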
Sa RN4220 lethal: growth inhibition of S. aureus RN4220, primary screen, OD600. 16 h. inhibition, % (test concentration not listed). hit rate 0.33% among 330,000. AID 1259311, 2017;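 active = z-score of -3 or lower and OD600 up to 0.18 on both plates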;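 note: plate controls were untreated cells for no effect and reference antibiotic for full effect; stock transfer was 100 nL into about 80 µL; one replicate is shown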
Mtb hypoxia inh: PubChem AID 1159583; M. tuberculosis hypoxia-regulated fluorescent reporter, fluorescence; hit rate 0.1% among 300,000; fluorescence inhibition, % (test concentration not listed);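 active = 35 to 45% if threefold the growth effect, above 45% if 1.5-fold the growth effect; inactive = the rest, general growth blockers included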;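 note: wells of about 50 µL received 100 nL stock; 0% = vehicle wells and 100% = reference inhibitor wells; whole bacteria with a GFP reporter of the hypoxia response; strong numbers were not always called active; many hits fall short of the cut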
Mtb hypoxia inh growth: further read-out of Mtb hypoxia inh, marked with its call; growth inhibition, %; measured here: M. tuberculosis growth (absorbance);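 0% = vehicle and 100% = reference antibiotic; read after six days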
* hit, by the source's call; · = no result given.

SMILES,Sa ugtP lethal,Autofluor counter,BJeLR viability,PrP 5UTR inh,Sa RN4220 lethal,Mtb hypoxia inh,Mtb hypoxia inh growth
Nn1c(SCC(=O)Nc2ccc3c(c2)OCCO3)nnc(CCC(=O)O)c1=O,8.3,5342,0.2,-8.6,3.9,-2.9,-2.2
CN(C)c1cc(NC(=O)CN2CCCC2)c2ccccc2n1,2.7,4743,-12.0,-18.8,4.3,-12.8,-16.4
Cc1ccc(C(=O)N2CCN(C/C=C/c3ccccc3)CC2)cc1S(=O)(=O)N1CCOCC1,10.1,3795,·,-4.2,0.7,6.7,-0.3
CC(C)C(=O)N=C1NC(=O)CS1,-3.2,2454,1.9,-20.4,5.4,5.5,7.8
CCC(=O)NC(=S)Nc1ccc(-c2nc3ccccc3s2)cc1,10.7,2488,-10.3,-47.0,-4.0,·,·
COc1ccc(-c2nc(CS(=O)CC(=O)NC3CCCC3)c(C)o2)cc1 (stereo not given),6.4,5049,8.1,-19.5,5.1,12.7,11.8
COCCCNC(=O)Cn1nc(-c2ccccc2OC)ccc1=O,-4.0,3014,-5.1,-0.5,-15.6,0.8,3.8
COC(=O)c1ccc(OC)c(CSc2nnc(COc3ccc(Cl)cc3)o2)c1,10.5,·,5.0,-15.8,4.9,0.2,-3.6
CN=c1c([N+](=O)[O-])nn(-c2ccc3c(c2)OCCO3)n1O,16.0,4032,19.9,-12.2,30.3,18.2,0.2
COc1ccc(-c2c(-c3cc(OC)cc(OC)c3)n(C)c3ccc(-c4cnc(OC)nc4)cc23)cc1,9.4,2925,·,-0.2,3.6,17.4,12.8
O=C(NN=Cc1cccc(O)c1)c1ccc(NC(=O)C2CCCCC2)cc1,-2.4,·,·,·,-5.5,6.4,9.3
C=CCn1c(COc2ccccc2C)nnc1SCC(=O)O,4.2,2822,-7.2,11.7,1.6,·,·
On1c(-c2ccc(Cl)cc2Cl)nc2ncccc21,4.4,3855,-10.5,-25.1,0.5,-8.4,-3.9
Cc1cccc(Nc2nnc(SCC(O)=C(C#N)c3nc4ccccc4[nH]3)s2)c1,-8.9,3318,·,-9.6,9.6,-4.0,5.7
COCc1c(C(=O)NC2CCCCC2)sc2cccc(F)c12,7.8,3371,·,-18.9,5.0,21.6,19.2
O=C(CCc1nnc2ccc(N3CCC4(CC3)OCCO4)nn12)NCc1ccccc1Cl,3.4,8024,-14.3,-4.4,0.5,12.1,0.9
Cc1ccc(OCc2ccc(C(=O)N3CCCC3)o2)c([N+](=O)[O-])c1,-0.2,6416,6.5,-23.1,1.8,13.2,0.6
Cc1ccc(S(=O)(=O)N2CCN(C(=O)N3CCCC3)CC2)cc1,7.1,2910,-2.3,-8.8,4.3,-2.8,0.2
CCn1c(SCC(=O)N/N=C/c2ccc(C)o2)nnc1-c1ccc(C(C)(C)C)cc1,·,2163,-13.2,-11.4,·,·,·
CN(CC(=O)Nc1cccc(F)c1)C(=O)c1cccc(N2C(=O)CCC2=O)c1,3.0,3406,·,-9.9,5.7,10.4,-8.3
CCC1(C)CC(C(CC(=O)O)c2ccc(C)cc2)CCO1 (stereo not given),-0.1,7863,5.4,-4.0,5.3,9.8,2.7
O=C(NCc1nc2ccccc2[nH]1)C1=CC(c2ccc(Br)cc2)CC(OCCCCO)O1 (stereo not given),-8.7,·,·,·,-3.0,-5.6,1.7
COc1ccccc1N1CCN(CC(O)c2c(C)[nH]c3ccccc23)CC1 (stereo not given),2.6,3026,-0.7,-3.5,1.6,2.9,-4.9
Cc1ccc(CNC(=O)CCC(=O)N2CC(C)Oc3ccccc32)cc1 (stereo not given),7.8,4465,4.8,-3.1,-4.3,3.1,-1.4
CC[n+]1c(/C=C2\C=C(C)CC(C)(C)C2)sc2ccccc21,-3.6,6211,-1.5,-13.0,5.6,7.2,14.5
O=C(O)c1cnc(-c2ccccc2)nc1Sc1ccccc1Cl,2.3,9044,-2.0,-27.9,10.3,13.7,12.4
O=C(CSc1nnnn1Cc1ccccc1)NC1CCCCC1,14.2,2513,-2.8,-11.1,3.9,3.9,-1.9
Cc1cc2oc3c(c(=O)c2cc1C)C(c1cccc(Br)c1)N(Cc1ccco1)C3=O (stereo not given),11.9,2845,3.5,-24.6,5.3,6.9,3.5
COc1ccc(C(C(=O)NC2CCCCC2)N(C(=O)c2ccco2)c2ccccc2C(C)=O)cc1OC (stereo not given),0.7,3326,-3.9,-10.9,1.8,8.5,1.5
CCc1ccc(C2NC(=S)NC3=C2C(=O)CCC3)cc1 (stereo not given),6.4,2115,-14.5,-11.8,8.5,12.5,10.7

Next section; the last two above are carried over.
SMILES,Sa ugtP lethal,Autofluor counter,BJeLR viability,PrP 5UTR inh,Sa RN4220 lethal,Mtb hypoxia inh,Mtb hypoxia inh growth
COc1ccc(C(C(=O)NC2CCCCC2)N(C(=O)c2ccco2)c2ccccc2C(C)=O)cc1OC (stereo not given),0.7,3326,-3.9,-10.9,1.8,8.5,1.5
CCc1ccc(C2NC(=S)NC3=C2C(=O)CCC3)cc1 (stereo not given),6.4,2115,-14.5,-11.8,8.5,12.5,10.7
Cc1cccc(-n2c(CNC(=O)COc3ccccc3)nnc2SCC(=O)Nc2nccs2)c1,9.8,3409,·,18.2,2.3,·,·
O=C1CC(=O)N(c2ccc(Cl)cc2)C(=O)N1,14.6,3476,-10.9,-56.9,4.4,4.8,11.8
O=c1cc(-c2ccccc2)nc(SCc2ccc(F)cc2)[nH]1,-6.6,2557,-10.3,-30.7,8.2,17.7,-5.5
Cc1ccc2nc(SCC(=O)N/N=C/c3ccc(C(=O)O)cc3)cc(C)c2c1,·,4173,-0.6,-0.5,·,·,·
CCn1c2ccccc2c2cc(NC(=O)CSc3nnc(-c4ccc(OC)cc4)n3N)ccc21,4.5,24502*,-5.9,-14.5,8.9,-1.2,6.2
C#CCn1c(=O)c2c(ncn2C)n(C)c1=O,-6.5,6028,10.1,-9.9,7.0,-0.9,2.2
CC(C)(CNS(=O)(=O)c1cccs1)N1CCOCC1,4.0,3474,·,-15.8,0.8,11.9,9.4
CC(NC(=O)COC(=O)CCc1nc2ccccc2c(=O)[nH]1)c1ccccc1 (stereo not given),2.8,4411,0.3,-14.7,3.7,2.6,3.3
COc1ccc(CN(C)S(=O)(=O)c2nnc(NC(=O)c3cccc(C)c3)s2)cc1OC,-10.9,6243,3.6,-20.0,-0.8,-25.4,-3.6
NC(=O)CCC(NC(=O)c1ccc(Cl)cc1)C(=O)NCCc1ccc2c(c1)OCCO2 (stereo not given),-0.1,6251,·,-9.9,-4.2,-1.0,7.9
NC1=NC(=Nc2ccc(S(=O)(=O)N3CCOCC3)cc2)c2ccccc21,13.8,4324,-2.6,-1.8,3.6,6.6,12.1
COc1ccc(C2(c3ccc(OC)cc3)NC(=O)N(CC(=O)Nc3ccccc3C)C2=O)cc1,9.0,4419,-2.3,-11.9,0.2,-10.2,-3.9
COc1cc(NC(=O)c2ccccc2)c(OC)cc1NC(=O)CN1C(=O)N(C)C2(CCCCC2)C1=O,-2.6,5947,·,-9.3,2.7,-1.1,2.4
CCOC(=O)c1c(C)oc2c(F)c(F)c(F)c(F)c2c1=O,4.4,1981,-0.5,-12.2,12.4,·,·
CCOc1cc(/C=N/Nc2nn3cnnc3c3ccccc23)ccc1O,·,4482,8.9,-41.3,·,·,·
CSC(=Nc1cccc(C)c1)NC#N,6.5,1861,-1.6,-10.0,9.0,-4.6,-2.6
CC/C(=N\N=C1\SC(C)C(=O)N1Cc1ccco1)c1ccccc1 (stereo not given),·,1944,-1.3,-5.0,·,·,·
COc1ccc(OC)c(S(=O)(=O)N(C)CC(=O)N2CCN(c3ccccc3)CC2)c1,-0.3,3329,-3.5,-18.1,-15.4,8.0,2.4
NC(=O)CC1NC(=O)c2ccccc21 (stereo not given),1.4,23615*,-1.5,-33.4,0.9,0.4,-5.7
Cc1cc(NC(=O)CSc2nnc(-c3ccccc3)n2C)no1,-0.5,3472,-10.2,-17.0,4.0,7.4,9.0
O=C(Cc1cccc(NC(=O)C2CCN(C(=O)C3CC3)CC2)c1)Nc1cccc(C(=O)N2CCOCC2)c1,-0.3,3640,·,-4.8,3.7,3.5,9.4
COC(=O)c1c(NC(=O)c2ccccc2OC)sc(C(=O)N2CCOCC2)c1C,6.2,5866,-1.1,-4.1,5.8,-0.2,1.1
O=C(CN1C(=O)NC2(CCCC2)C1=O)Nc1nc(-c2ccc(F)c(F)c2)cs1,4.8,5062,·,-8.5,1.2,4.7,6.1
C=C(C)C(=O)N1CC2(CC(c3cccc(NC(=O)COc4ccc(Cl)cc4)c3)=NO2)C[C@@H]1C(N)=O (stereo not given in full),·,3560,10.3,-21.4,·,·,·
Cc1ccc(NC(=O)c2oc3ccccc3c2NC(=O)C2CC2)cc1,-1.6,5692,-14.5,-13.6,1.0,-7.5,0.6
CC(C)c1ccc(NC(=O)c2ccc3c(c2)CCN3S(C)(=O)=O)cc1,1.2,3780,-6.0,-18.5,5.0,3.1,8.5
CCCN1C(=O)c2cc(C(=O)Nc3ccc(OC)c(OC)c3)ccc2C1Nc1ccc(OC)c(OC)c1 (stereo not given),8.1,2654,-4.8,-11.8,1.5,2.0,4.1
Cc1sc(NC(=O)Cn2c(=O)oc3ccccc32)nc1-c1ccc(Cl)cc1,-10.5,2460,-0.1,-12.9,-4.0,7.1,4.9
CCOc1ccc(NC(=O)CCN2CCN(S(=O)(=O)c3ccc(F)cc3)CC2)cc1,-1.3,4980,2.3,-5.8,-0.8,0.4,6.6
Cc1cc(-c2ccccc2)nc(NN=Cc2ccc(O)cc2)n1,-1.9,·,·,·,8.7,4.6,-1.5
CCn1c(NCCCO)nc2c(c1=O)C(C)(CC)Cc1ccccc1-2 (stereo not given),-14.8,5646,-3.0,-7.8,6.4,-15.0,-5.0
Cc1cc(NS(=O)(=O)c2ccc(NC(=O)COc3ccccc3[N+](=O)[O-])cc2)no1,2.0,6145,3.6,-26.1,1.2,5.6,1.9
C/C(=N/NC(=O)CNC(=O)/C=C/c1ccco1)c1ccc(Cl)cc1,·,4576,7.4,-34.5,·,·,·
Cc1cc(Br)ccc1NC(=O)CN1CCN(c2ccccn2)CC1,-3.0,3885,0.1,·,0.3,11.0,14.6
COCCN(C(=O)CSc1nnc(-c2cccs2)n1N)c1c(N)n(Cc2ccccc2)c(=O)[nH]c1=O,3.4,5193,-2.9,-13.3,3.4,9.9,0.0

Entries shown so far that contain a cyano group, in the order listed:
SMILES,Sa ugtP lethal,Autofluor counter,BJeLR viability,PrP 5UTR inh,Sa RN4220 lethal,Mtb hypoxia inh,Mtb hypoxia inh growth
Cc1cccc(Nc2nnc(SCC(O)=C(C#N)c3nc4ccccc4[nH]3)s2)c1,-8.9,3318,·,-9.6,9.6,-4.0,5.7
CSC(=Nc1cccc(C)c1)NC#N,6.5,1861,-1.6,-10.0,9.0,-4.6,-2.6

Compounds were not picked by outcome, and some 4% of all compounds hit somewhere here.
